A1 inh = inhibitors of A1. MEF A1-2A-BIM cells, caspase-Glo luminescence, 3 h; percent of clofoctol signal, DMSO as zero. caspase activation, % (concentration not given with the values). hit rate 0.51% among 21,000;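 active = most replicate scores above 10, or exactly half above 10 with mean activity above 10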;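 note: effector caspase 3 and 7 activity cleaving a DEVD luciferin substrate; 50 nL library stock added to about 30 µL; numbers are from one replicate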
BJeLR viability = compounds reducing viability of BJeLR cells. BJeLR fibroblasts viability, CellTiterGlo ATP luminescence, 48 h; HRASV12, hTERT and SV40 LT/ST transformed. viability loss activity score, % (test concentration not listed). hit rate 0.64% among 30,000. AID 2275; in the data active = viability loss activity score above about 50%; about a fifth of its hits are not listed in these tables;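 note: higher score means fewer live cells and less ATP luminescence; stock transfer was 50 or 100 nL into about 30 µL; 0% = vehicle wells and 100% = a reference killing control; one replicate is shown; the record names a cut of 85%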
* hit, by the source's call; x = not tested or not shown. Not all compounds are listed; count on the stated rates, not on these rows.

item	smiles	A1 inh	BJeLR viability
1	Cc1noc(C)c1S(=O)(=O)Nc1ccc2c(c1)C(=O)N([C@H](C)CO)C[C@@H](C)[C@@H](CN(C)Cc1ccc3c(c1)OCO3)O2	0.8	-0.1
2	O=C(CCC1CCCCC1)NCCC12CC3CC(CC(C3)C1)C2	-0.5	2.5
3	Cc1ccc(-c2nc(S(=O)(=O)c3ccccc3)c(SCC(N)=O)o2)cc1	x	0.4
4	COC(=O)c1cccc(-n2c(CCC(=O)O)ccc2-c2ccccc2)c1	1.1	2.6
5	O=c1c(-c2ccccc2)c(O)c2cccc3c4ccccc4n1c23	-1.7	-1.7
6	C[C@H]1CN([C@@H](C)CO)C(=O)c2cc(NC(=O)Cn3cnnn3)ccc2O[C@H]1CN(C)S(=O)(=O)c1ccccc1	0.5	3.5
7	C[C@H]1CN([C@@H](C)CO)C(=O)c2cc(NC(=O)CCC(F)(F)F)ccc2O[C@@H]1CN(C)C	0.2	3.1
8	CCc1ccc(N2C(=O)CC(Sc3ccccn3)C2=O)cc1 (stereo not given)	-0.5	-10.0
9	Cc1noc(C)c1S(=O)(=O)Nc1ccc2c(c1)C(=O)N([C@@H](C)CO)C[C@H](C)[C@H](CN(C)C(=O)NC(C)C)O2	0.7	7.4
10	C[C@H]1CN([C@@H](C)CO)C(=O)c2cccc(NC(=O)Nc3ccc(C(F)(F)F)cc3)c2O[C@H]1CN(C)C(=O)Nc1ccc(F)cc1	x	1.7
11	Cc1ccc(S(=O)(=O)c2nc(-c3ccccc3Br)oc2N(C)C)cc1	0.3	4.1
12	Cc1noc(C)c1NC(=O)N(C)C[C@H]1Oc2c(NC(=O)Nc3ccc4c(c3)OCO4)cccc2C(=O)N([C@@H](C)CO)C[C@@H]1C	x	-1.8
13	CCOC(=O)c1ccc(N=C2SC(C(=O)O)CC(=O)N2Cc2cccs2)cc1 (stereo not given)	0.5	-9.9
14	COc1ccc(CNC(=O)c2ccc(OC)cc2OC)cc1	0.0	-8.8
15	COc1ccc(NC(=O)Nc2ccc3c(c2)C(=O)N([C@H](C)CO)C[C@H](C)[C@@H](CN(C)C(=O)NC2CCCCC2)O3)cc1	-0.4	2.3
16	C[C@H]1CN([C@@H](C)CO)C(=O)c2cc(NS(C)(=O)=O)ccc2O[C@@H]1CN(C)C	0.4	7.6

A draw from above in order of formula weight, largest number first:
item	smiles	A1 inh	BJeLR viability
10	C[C@H]1CN([C@@H](C)CO)C(=O)c2cccc(NC(=O)Nc3ccc(C(F)(F)F)cc3)c2O[C@H]1CN(C)C(=O)Nc1ccc(F)cc1	x	1.7
15	COc1ccc(NC(=O)Nc2ccc3c(c2)C(=O)N([C@H](C)CO)C[C@H](C)[C@@H](CN(C)C(=O)NC2CCCCC2)O3)cc1	-0.4	2.3
9	Cc1noc(C)c1S(=O)(=O)Nc1ccc2c(c1)C(=O)N([C@@H](C)CO)C[C@H](C)[C@H](CN(C)C(=O)NC(C)C)O2	0.7	7.4
13	CCOC(=O)c1ccc(N=C2SC(C(=O)O)CC(=O)N2Cc2cccs2)cc1 (stereo not given)	0.5	-9.9
14	COc1ccc(CNC(=O)c2ccc(OC)cc2OC)cc1	0.0	-8.8

Further compounds.
item	smiles	A1 inh	BJeLR viability
17	O=C(Nc1ccc(NC(=O)c2ccccc2O)cc1)c1ccc(Cl)cc1	0.0	-4.2
18	COc1ccc(C2c3ccsc3CCN2S(=O)(=O)c2ccc(Cl)cc2)cc1 (stereo not given)	-0.3	8.3
19	O=C1CC(c2cccs2)CC(O)=C1C=NCCN1CCNCC1 (stereo not given)	1.2	-4.2
20	Cc1noc(C)c1NC(=O)N(C)C[C@@H]1Oc2ccc(NS(C)(=O)=O)cc2C(=O)N([C@@H](C)CO)C[C@H]1C	0.0	-0.4
21	CNC[C@@H]1Oc2ccc(NS(=O)(=O)c3ccc(Cl)cc3)cc2C(=O)N([C@H](C)CO)C[C@H]1C	0.5	1.4
22	C=C1C(=O)O[C@H]2[C@H]1C[C@H](OC(=O)/C(C)=C\C)/C(C)=C\CC[C@@]1(C)O[C@@H]21	-1.6	21.0
23	C[C@H]1CN([C@@H](C)CO)C(=O)c2cccc(NC(=O)c3ccc(-c4nccs4)cc3)c2O[C@@H]1CN(C)C(=O)Nc1cccc2ccccc12	x	-1.1
24	CCc1ccc(Oc2coc3cc(OC(C)C(=O)OCC(C)C)ccc3c2=O)cc1 (stereo not given)	x	6.8
25	CCOC(=O)c1ccc(NC(=S)NN2CCN(C)CC2)cc1	0.2	1.6
26	COC(=O)NCN1C(=O)C2C3C=CC(C3)C2C1=O (stereo not given)	1.1	-0.1
27	Cc1c(C(=O)N2CCC3(CC2)OCCO3)sc2nc3n(c(=O)c12)CCCC3	0.3	-7.2
28	CC12CC(c3ccccc3O1)N(C(=O)c1cccc(F)c1)C(=S)N2c1ccccc1 (stereo not given)	x	-12.4
29	Cc1cc(C)cc(CC(C)CC(=O)Nc2ccccc2I)c1 (stereo not given)	-0.7	3.4
30	Cc1cc(C(=O)Nc2cccc3c2O[C@@H](CN(C)C(=O)NC(C)C)[C@H](C)CN([C@H](C)CO)C3=O)n(C)n1	x	-5.1
31	CCc1ccccc1Oc1coc2cc(OC(=O)c3ccccc3F)ccc2c1=O	0.4	-10.3
32	CC1CCN(C(=O)CN(c2ccc(Cl)c(C(F)(F)F)c2)S(=O)(=O)c2ccccc2)CC1	-0.5	2.6
33	COc1ccc(NC(=O)Nc2ccc3c(c2)C(=O)N([C@@H](C)CO)C[C@H](C)[C@@H](CN(C)S(=O)(=O)c2ccc(C)cc2)O3)cc1	0.3	-2.9
34	CC(C)NC(=O)COc1ccc2c(c1)C(=O)CC(C)(C)O2	x	-3.5
35	COc1ccc(S(=O)(=O)Nc2cccc3c2O[C@H](CN(C)Cc2ccccc2)[C@H](C)CN([C@@H](C)CO)C3=O)cc1	x	1.5
36	C[C@@H]1CN([C@H](C)CO)C(=O)c2cc(NC(=O)Nc3ccc4c(c3)OCO4)ccc2O[C@@H]1CN(C)Cc1ccc(Cl)c(Cl)c1	-0.8	1.8
37	COc1ccc(S(=O)(=O)N(C)C[C@H]2Oc3ccc(NC(=O)Nc4ccc(F)cc4)cc3C(=O)N([C@H](C)CO)C[C@H]2C)cc1	0.6	7.4
38	CCn1c(=N)n(CCCOc2ccc(Br)cc2)c2ccccc21	0.0	2.6
39	C[C@H]1CN([C@@H](C)CO)C(=O)c2cccc(NC(=O)C3CCCCC3)c2O[C@@H]1CN(C)C(=O)Nc1ccc(C(F)(F)F)cc1	x	1.0
40	C[C@@H]1CN([C@@H](C)CO)C(=O)c2cc(NC(=O)Nc3cccc4ccccc34)ccc2O[C@@H]1CN(C)S(=O)(=O)c1ccc(Cl)cc1	-0.2	0.3
41	CCOc1cc2sc(N3CCC(C(=O)N(C)Cc4ccccc4)CC3)nc2cc1Br	0.1	5.9
42	c1cnc2cc(Oc3ccc4nccnc4c3)ccc2n1	0.2	-2.3
43	C[C@@H]1CN([C@H](C)CO)C(=O)c2cc(NS(=O)(=O)c3cccs3)ccc2O[C@H]1CN(C)S(=O)(=O)c1cn(C)cn1	0.4	-0.9
44	O=c1c2ccccc2c(-c2ccccc2)nn1-c1ccccc1	-0.1	2.7
45	Cc1ccc(CNC(=O)CSC2=Nc3ccccc3C3=NC(Cc4ccccc4)C(=O)N23)cc1 (stereo not given)	0.2	1.3
46	Cc1ccc(S(=O)(=O)N(C)C[C@H]2Oc3c(NC(=O)Nc4ccc(C(F)(F)F)cc4)cccc3C(=O)N([C@H](C)CO)C[C@H]2C)cc1	x	-5.8
47	Cc1noc(C)c1S(=O)(=O)N(C)C[C@@H]1Oc2ccc(NC(=O)Cn3cnnn3)cc2C(=O)N([C@@H](C)CO)C[C@@H]1C	0.0	2.1
48	COC(CN(C)C(=O)c1ccc2c(c1)NC(=O)c1ccccc1S2)OC	-0.2	-3.8

3 entries from above, with two lines to a compound.
Order of values: A1 inh | BJeLR viability
3: Cc1ccc(-c2nc(S(=O)(=O)c3ccccc3)c(SCC(N)=O)o2)cc1
 : x | 0.4
28: CC12CC(c3ccccc3O1)N(C(=O)c1cccc(F)c1)C(=S)N2c1ccccc1 (stereo not given)
 : x | -12.4
22: C=C1C(=O)O[C@H]2[C@H]1C[C@H](OC(=O)/C(C)=C\C)/C(C)=C\CC[C@@]1(C)O[C@@H]21
 : -1.6 | 21.0

(list continues)
item	smiles	A1 inh	BJeLR viability
49	COc1ccc(NC(=O)N(C)C[C@H]2Oc3c(NC(=O)C4CCCCC4)cccc3C(=O)N([C@@H](C)CO)C[C@@H]2C)cc1	x	3.2
50	CNC[C@H]1Oc2ccc(NS(=O)(=O)c3cccs3)cc2C(=O)N([C@@H](C)CO)C[C@H]1C	0.1	-0.4
51	C[C@@H]1CN([C@@H](C)CO)C(=O)c2cc(NS(=O)(=O)c3ccccc3)ccc2O[C@@H]1CN(C)C(=O)Nc1ccc2c(c1)OCO2	-1.0	-0.9
52	COc1cc(C)c(C(=O)Oc2cc(C)c(C(=O)O)c(O)c2C)c(OC)c1C	-0.1	-9.6
53	O=C(Cn1c(=O)c2cccn2c2ccccc21)NCCCN1CCCCC1	-0.1	2.7
54	Cc1noc(C)c1NC(=O)N(C)C[C@@H]1Oc2c(NC(=O)Nc3ccc(C(F)(F)F)cc3)cccc2C(=O)N([C@@H](C)CO)C[C@H]1C	x	-2.5
55	COc1ccc(/C=C/C(=O)O[C@H]2[C@H](O[C@H]3[C@@H]4C=CO[C@@H](O[C@@H]5O[C@H](CO)[C@@H](O)[C@H](O)[C@H]5O)[C@@H]4[C@@]4(CO)O[C@@H]34)O[C@@H](C)[C@H](O)[C@H]2OC(C)=O)cc1	0.0	-13.0
56	C=CCNc1oc(CC(C)C)nc1C#N	-0.1	5.5
57	O=C1/C(=C/c2cccc(Cl)c2)CC/C1=C\c1cccc(Cl)c1	x	-3.8
58	COc1ccc(S(=O)(=O)Nc2cccc3c2O[C@H](CN(C)C(=O)Nc2c(C)noc2C)[C@@H](C)CN([C@@H](C)CO)C3=O)cc1	x	2.7
59	C[C@@H]1CN([C@H](C)CO)C(=O)c2cc(NC(=O)CCN3CCOCC3)ccc2O[C@@H]1CN(C)C(=O)Nc1ccc2c(c1)OCO2	-0.3	0.1
60	C[C@H](CO)N1C[C@H](C)[C@@H](CN(C)C(=O)Nc2ccc3c(c2)OCO3)Oc2c(NS(C)(=O)=O)cccc2C1=O	x	1.6
61	C[C@H](CO)N1C[C@H](C)[C@@H](CN(C)S(C)(=O)=O)Oc2ccc(N(C)C)cc2C1=O	0.3	-2.3
62	C[C@H](CO)N1C[C@H](C)[C@H](CN(C)C(=O)NC2CCCCC2)Oc2ccc(NC(=O)Cc3cn(C)c4ccccc34)cc2C1=O	0.1	0.6
63	CC1Oc2ccccc2OC1(O)c1ccc(Br)cc1 (stereo not given)	1.5	2.5
64	COC(=O)c1ccccc1N(C)S(C)(=O)=O	0.0	-0.5
65	O=C(Nc1ccccc1)Oc1ccccc1N1CCCCC1	-5.0	1.5
66	CSc1c(-c2ccccn2)c(N)nn1C(=O)C1CCC1	0.5	3.5
67	CC(=O)O[C@H]1CC[C@@]2(C)C(C[C@@H](OC(C)=O)[C@@]3(C)C4=CC(=O)O[C@@H](c5ccoc5)[C@]4(C)CCC23)C1(C)C (stereo not given in full)	0.1	3.0
68	Cc1ccccc1N1C(=O)NC(=O)/C(=C\C=C\c2ccco2)C1=O	0.4	-1.3
69	Cc1ccc(S(=O)(=O)Nc2cccc3c2O[C@H](CN(C)S(=O)(=O)c2cccs2)[C@@H](C)CN([C@@H](C)CO)C3=O)cc1	x	-1.5
70	C[C@H]1CN([C@@H](C)CO)C(=O)c2cccc(NC(=O)Nc3ccc(F)cc3)c2O[C@@H]1CN(C)S(=O)(=O)c1ccc(F)cc1	x	-4.3
71	COCc1cc(C)nc(N)c1C#N	-0.3	-5.8
72	C[C@@H]1CN([C@@H](C)CO)C(=O)c2cccc(NC(=O)Nc3ccc4c(c3)OCO4)c2O[C@H]1CN(C)Cc1ccc(Oc2ccccc2)cc1	x	-0.3
73	O=C(Nc1nccs1)C1CCCN(C(=O)c2cnn(-c3ccccc3)c2-n2cccc2)C1 (stereo not given)	0.4	3.5
74	CN1C(N)=NC(=O)/C1=C/c1cccnc1	0.2	-1.6
75	CN1CCN(C(=O)CSc2c(-c3ccccc3)c3cc(Cl)ccc3[nH]c2=O)CC1	0.8	0.6
76	CNC[C@@H]1Oc2c(NC(=O)C3CCCCC3)cccc2C(=O)N([C@H](C)CO)C[C@H]1C	x	6.2
77	CC(C)NC(=O)Nc1ccc2c(c1)C(=O)N([C@@H](C)CO)C[C@@H](C)[C@H](CN(C)S(=O)(=O)c1cccs1)O2	0.7	-0.4
78	CC(=O)n1c2ccccc2c2cc(Br)ccc21	-0.1	0.7
79	COC(=O)C(C)Sc1nc2c([nH]c3ccccc32)c(=O)n1C (stereo not given)	x	-0.3
80	O=C(Oc1ccc(C2SCCS2)cc1)c1ccccc1Cl	-4.0	-1.1
81	Cn1c(CSc2cc(C(F)(F)F)nc3ccccc23)n[nH]c1=S	0.3	2.4
82	CC(C)C(=O)NCCSc1c(-c2ccccc2)[nH]c2ccccc12	x	2.6
83	CSc1cccc(NC(=O)CSc2nc3ccccc3o2)c1	x	4.1
84	OC(c1cc(C(F)(F)F)nc2c(C(F)(F)F)cccc12)C1CCCCN1 (stereo not given)	0.2	-5.0
85	C[C@H]1CN([C@@H](C)CO)C(=O)c2cc(NC(=O)Nc3ccccc3)ccc2O[C@H]1CN(C)S(=O)(=O)c1cccs1	-0.1	-6.0
86	C=CCn1cc(C=C2C(=O)OC(c3ccccc3)OC2=O)c2ccccc21 (stereo not given)	-0.1	6.7
87	CC(=O)OCC(=O)Nc1cccc(C)c1	-1.6	4.7
88	C=CCSc1nnc(Cc2cc(=O)[nH]c(=O)[nH]2)n1-c1ccc(OC)cc1	x	-0.7
89	CCCCn1c(CCNC(=O)C(C)C)nc2ccccc21	-0.9	-1.4

Assay outcomes from PubChem BioAssay.
